Mtb growth: M. tuberculosis H37Rv growth inhibitors, H37Rv strain (AID 1626); inhibition, % at 10 µM; hits with a dose series show IC50 in µM; 220,000 compounds, 0.95% hits; M. tuberculosis H37Rv growth inhibition; higher % means a stronger effect;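 active = confirmed in a dose series; inconclusive = inhibition above 80% but not taken into the dose series; inactive = below 80% or under 30% at every dose of the series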;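 note: bacteria incubated seven days before Alamar blue readout; 0% = bacteria only wells and 100% = bacteria with antibiotic wells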
YopH inh: YopH (Yersinia) phosphatase inhibition. AID 898. 140,000 compounds, 0.16% hits. inhibition, %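 (about 10 µM by stock and volumes)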. fluorescence Ex485/Em525;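 active = inhibition of 50% or more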;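 note: controls were vehicle for no effect and minimum signal wells for full effect; inactives centre near -20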
RecA intein inh: blocks M. tuberculosis RecA intein splicing | P9WHJ3 | cell-free RecA intein splicing, fluorescence | inhibition, %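 (about 9 µM by stock and volumes)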 | 290,000 compounds, 0.75% hits; in the data active = inhibition above about 30%; inconclusive = no clear call, values can overlap the other calls;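 note: 0% = vehicle wells and 100% = reference inhibitor control wells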
Target sequence (P9WHJ3 whole entry, looked up): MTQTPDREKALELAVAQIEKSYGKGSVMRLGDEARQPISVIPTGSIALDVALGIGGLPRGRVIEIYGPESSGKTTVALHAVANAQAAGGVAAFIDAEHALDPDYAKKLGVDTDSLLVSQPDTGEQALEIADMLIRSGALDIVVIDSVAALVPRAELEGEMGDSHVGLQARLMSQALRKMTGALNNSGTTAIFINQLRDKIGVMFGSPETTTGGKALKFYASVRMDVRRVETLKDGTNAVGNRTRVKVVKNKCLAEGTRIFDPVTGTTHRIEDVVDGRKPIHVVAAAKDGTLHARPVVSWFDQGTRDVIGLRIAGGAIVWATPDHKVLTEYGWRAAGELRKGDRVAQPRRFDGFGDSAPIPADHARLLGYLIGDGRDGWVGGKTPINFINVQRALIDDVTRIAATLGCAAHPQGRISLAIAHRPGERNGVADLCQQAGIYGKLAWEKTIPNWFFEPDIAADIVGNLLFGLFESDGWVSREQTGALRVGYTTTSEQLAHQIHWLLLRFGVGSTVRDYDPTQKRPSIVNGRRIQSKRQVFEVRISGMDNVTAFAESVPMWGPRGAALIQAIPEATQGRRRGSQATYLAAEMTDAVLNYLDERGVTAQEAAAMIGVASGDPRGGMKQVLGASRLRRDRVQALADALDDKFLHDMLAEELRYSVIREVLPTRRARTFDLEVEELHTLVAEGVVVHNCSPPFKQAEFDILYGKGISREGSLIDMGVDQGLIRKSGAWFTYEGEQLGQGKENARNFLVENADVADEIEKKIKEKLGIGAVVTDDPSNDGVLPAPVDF
Mtb bLac sens: beta-lactam sensitization of Mtb H37Rv | M. tuberculosis H37Rv growth with meropenem, percent inhibition; hits of this screen are not shown here | inhibition, % at 25 µM | 330,000 compounds, 0.27% hits | AID 434955;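 active = about 74% or more and at least 40 points above the plate without the antibiotic, then above 30% in a dose series; inconclusive = first-round hits that could not be retested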;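 note: growth measured after seven days incubation then overnight dye step; 0% = bacteria only wells and 100% = bacteria with antibiotic; twin plates without the antibiotic show which effects depend on it; some results filed as inactive read as strong as hits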
Arbovirus anti: arbovirus infection inhibition; arbovirus infection cell-based antiviral screen; inhibition, % at 10 µM; 200,000 compounds, 0.37% hits;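 active = inhibition from about 30%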;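 note: bluetongue infection of BSR cells; cell survival read as ATP light after 72 h; 0% = infected wells without compound and 100% = uninfected wells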
Arbovirus anti repeat: recorded beside Arbovirus anti, whose call it bears; inhibition, %; measured here: 10K subset replicate screen; many hits read low in the repeat;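 first of two repeat runs on a subset; 0% = infected and 100% = uninfected wells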
The depositor's hits bear a star; ? = inconclusive; . = not tested or not shown. The list is partial; rates above refer to the full screens.

SMILES	Mtb growth	YopH inh	RecA intein inh	Mtb bLac sens	Arbovirus anti	others
CC(=O)N1[C@H](C)C=C[C@]1(Cc1ccccc1)C(=O)NCCc1c[nH]c2ccccc12	.	.	1.5	-1	.
O=C(CCn1c(=O)oc2ccccc21)Nc1ccc(N2CCOCC2)cc1	.	.	-1.6	-2	.
O=C(Nc1cccc(Cl)c1)N1CCN2C(=O)c3ccccc3C12c1ccccc1 (stereo unspecified)	1%	-30	11	33	-32
COc1ccc(/C=C(/C#N)C(=O)Nc2cccc([N+](=O)[O-])c2)cc1C(=O)O	4%	.	5.3	2	4
COc1ccc(-c2c3c(=O)n(C)c(=O)n(C)c3cn2-c2ccccc2O)cc1	-4%	.	1.8	1	.
CCOc1ccc(CN2CCC(C(=O)N3CCN(c4ccccc4F)CC3)CC2)cc1OC	-2%	-26	-1.7	-6	1
O=C(OCc1ccc([N+](=O)[O-])cc1)c1cc([N+](=O)[O-])ccc1N1CCOCC1	.	.	3.9	-10	.
C/C(=N\NC(=O)c1ccc(C(=O)N/N=C(\C)c2ccco2)o1)c1ccco1	.	.	-1.6	-4	.
Cc1cc(=O)[nH]c(N/N=C2/CCCC/C2=C\c2ccccc2)n1	-1%	.	-2.6	90	.
CCCCc1ccc(NC(=O)N[C@@H](C)C(=O)O)cc1	1%	.	-2.1	12	.
O=C(O)CCn1ccnc1-c1ccccc1	-2%	-5	-1.6	-2	5
COC(=O)C1=C(c2ccccc2)C[C@@H]2CC[C@H]1N2C(=O)NCCNC(C)=O	-15%	.	-1.6	-2	.
CN1CCN(C(=O)c2cc3ccccc3[nH]2)CC1	.	.	-1.5	0	.
COCCNC(=O)CSc1nc(N)c(NC(=O)c2ccccc2F)c(=O)[nH]1	-1%	6	-1.5	12	10
O=C(Cn1ncc2c3ccccc3n(Cc3ccc(F)cc3)c2c1=O)N1CCC2(CC1)OCCO2	7%	-5	-1.0	3	2

A draw from above in order of heavy-atom count, largest number first.
SMILES	Mtb growth	YopH inh	RecA intein inh	Mtb bLac sens	Arbovirus anti	others
O=C(Nc1cccc(Cl)c1)N1CCN2C(=O)c3ccccc3C12c1ccccc1 (stereo unspecified)	1%	-30	11	33	-32
O=C(OCc1ccc([N+](=O)[O-])cc1)c1cc([N+](=O)[O-])ccc1N1CCOCC1	.	.	3.9	-10	.
C/C(=N\NC(=O)c1ccc(C(=O)N/N=C(\C)c2ccco2)o1)c1ccco1	.	.	-1.6	-4	.
Cc1cc(=O)[nH]c(N/N=C2/CCCC/C2=C\c2ccccc2)n1	-1%	.	-2.6	90	.
O=C(O)CCn1ccnc1-c1ccccc1	-2%	-5	-1.6	-2	5

New compounds follow
SMILES	Mtb growth	YopH inh	RecA intein inh	Mtb bLac sens	Arbovirus anti	others
O=c1cc(CN2CCN(Cc3ccc(F)cc3)C(CCO)C2)[nH]c2ccccc12 (stereo unspecified)	.	.	-1.7	-4	.
NC(=O)c1ccccc1NC(=O)COc1ccc(Cl)cc1	-3%	.	0.8	0	.
CCOc1ccccc1N1CN(C2CCCCC2)CNC1=S	-9%	.	-0.5	-9	.
Cc1ccc(N2C(=O)N(CC(=O)Nc3ccc(C)cc3[N+](=O)[O-])C(=O)C2C)cc1 (stereo unspecified)	.	.	1.0	2	.
O=C(COC(=O)/C=C/C(=O)OCC(=O)NC12CC3CC(CC(C3)C1)C2)NC12CC3CC(CC(C3)C1)C2	2%	-12	4.0	-2	-37
COc1ccc(OC)c(-n2c(C)cc(C=O)c2C)c1	-5%	.	.	-4	-3
CC(C)(C)C1CCC(OCC(O)CN2CCN(c3ccccc3)CC2)CC1 (stereo unspecified)	13%	5	3.0	7	-24
CCC(C)N(CCNC(=O)c1ccc(NC2=NC3CS(=O)(=O)CC3S2)cc1)Cc1ccco1 (stereo unspecified)	.	.	-4.5	-3	.
CC(NC(=O)COC(=O)CCNC(=O)c1ccco1)C12CC3CC(CC(C3)C1)C2 (stereo unspecified)	-2%	-5	4.8	-13	6
COc1ccccc1CNC(=O)Cc1csc(NC(=O)Nc2ccccc2OC)n1	.	.	6.2	-2	.
COc1ccc(-c2cc(-c3ccccc3)nc(Cl)n2)cc1OC	.	.	-2.3	92	.
Cc1ccc2c(c1)c(=O)c1c3n2CCN(CC#N)C3CC1 (stereo unspecified)	-8%	.	-1.7	4	7
COc1cccc(C2Oc3ccccc3C3CC(c4cccs4)=NN32)c1 (stereo unspecified)	3%	.	-0.1	51	.
COC(=O)c1ccc(OCC(O)CN2CCOCC2)cc1 (stereo unspecified)	.	.	0.6	4	.
Cc1nc2nc(CSc3nc4ccccc4s3)cc(=O)n2[nH]1	-3%	-30	3.4	1	10
O=P(OCC1CC1)(c1ccccc1)c1ccccc1	-1%	-22	-0.4	13	1
Nc1c(C(=O)NCCc2ccc(Cl)cc2)sc2ccc(S(=O)(=O)N3CCCCC3)cc12	17%	8	5.1	-1	-6
Cc1cc(C)cc(NS(=O)(=O)c2c(C(=O)N3CCOCC3)c(C)n(C)c2C)c1	.	.	-0.5	0	.
Cc1oc(-c2ccc(Cl)cc2)cc1C(=O)O	27%	.	-5.2	60	.
CC(=O)c1cccc(NC(=O)COc2nsnc2N2CCOCC2)c1	5%	-16	-1.7	-4	6
Cc1ccc(/C=C2/C(=O)ON=C2c2ccccc2)o1	-3%	.	-3.9	-12	.
Cc1ccc(SCCC(=O)N(C)CC(=O)Nc2c(C)cccc2C)cc1	.	.	-0.5	-8	.
Cc1ccc(OCCCCCN2CCOCC2)c(Cl)c1	.	.	1.6	-2	.
CCc1ccc(N2CC(C(=O)N3CCCCCC3)CC2=O)cc1 (stereo unspecified)	.	.	-0.6	9	.
COc1ccc(C(=O)N/N=C\c2coc3ccc(Cl)cc3c2=O)cc1	.	.	37*	-4	.
O=C(c1ccc(C(F)(F)F)cc1)N1CCC(=O)N(C(COCc2ccccc2)Cc2ccccc2)CC1 (stereo unspecified)	-1%	-1	10	-2	-28
COc1cc(OC)c(OC)cc1CNC(=O)c1ccc(COc2ccccc2)cc1	.	.	0.5	69	.
Cc1c(NC(=O)Nc2ccc(C(C)(C)C)cc2)c(=O)n(-c2ccccc2)n1C	.	.	-0.2	-2	.
Cc1ccc(CNn2cnnc2SCc2ccc(F)cc2)cc1	-6%	-100	-5.0	-14	-2
CCc1ccc(NC(=O)CSc2nc3ccccc3c(=O)n2CCCN2CCC(C)CC2)cc1	?	.	7.2	94	-23

A stretch from further up:
SMILES	Mtb growth	YopH inh	RecA intein inh	Mtb bLac sens	Arbovirus anti	others
O=P(OCC1CC1)(c1ccccc1)c1ccccc1	-1%	-22	-0.4	13	1
Nc1c(C(=O)NCCc2ccc(Cl)cc2)sc2ccc(S(=O)(=O)N3CCCCC3)cc12	17%	8	5.1	-1	-6

Next section
SMILES	Mtb growth	YopH inh	RecA intein inh	Mtb bLac sens	Arbovirus anti	others
COc1ccccc1CNC(=O)COC(=O)c1cccc(S(=O)(=O)N2CCCCC2)c1	.	.	2.2	-7	.
Cc1ccc(CCN2CC(C(=O)NCCCN3CCN(C)CC3)CC2=O)cc1 (stereo unspecified)	2%	-18	0.8	-1	10	Arbovirus anti repeat=1
O=C(NCC1(N2CCCCC2)CCCCC1)c1ccc(S(=O)(=O)N2CCCC2)cc1	2%	.	3.6	1	.
O=C(c1ccco1)N(CCC(c1ccccc1)c1ccco1)Cc1ccc(F)cc1 (stereo unspecified)	1%	7	16	-5	-35
COc1ccc(Cl)cc1C(=O)Nn1c(-c2cccs2)nc2ccccc2c1=O	1%	-20	-6.4	0	-5
COC(=O)C(Cc1c[nH]c2ccccc12)NC(=O)C(C)C (stereo unspecified)	-3%	3	-1.7	0	1
COc1ccc(CCNC(=O)CCn2c(=O)[nH]c3cc(OC)c(OC)cc3c2=O)cc1OC	1%	-90	4.4	-3	6
Cc1cccc(C(=O)Oc2cccc3c(O)cccc23)c1	.	.	5.9	4	.
O=C(O)c1cccnc1Sc1ncnc2sc3c(c12)CCC3	-2%	.	2.7	-4	.
COc1ccc(CCNC(=O)C(CCC(N)=O)NS(=O)(=O)c2ccc(Cl)cc2)cc1OC (stereo unspecified)	.	.	2.5	7	.
CC(=O)Oc1ccccc1C1=NN(C(=O)/C=C/c2ccccc2)C(c2ccccc2)C1 (stereo unspecified)	6%	14	2.3	14	9
O=C(CNC1CCCCC1)Nc1ccc([N+](=O)[O-])cc1C(=O)Nc1ccccc1F	2%	.	10	-2	-3
CCOC(=O)c1cccc(NC(=O)CCS(=O)(=O)c2cccs2)c1	-2%	-21	0.6	49	-4
COCc1[nH][nH]c(=O)c1C=Nc1ccc(Oc2ccccc2)cc1	?	8	-0.9	-8	-9
C=CCn1c(SCC(=O)NCCc2ccccc2)nnc1C1CC1	.	.	1.9	-14	.
COc1ccc(NC(=O)Cn2c(=O)oc3ccccc32)cc1	3%	.	0.8	1	.
O=C1CCC(C(=O)OCC(=O)C23CC4CC(CC(C4)C2)C3)N1 (stereo unspecified)	-1%	-15	1.9	-3	4
Cc1nn(-c2ccccc2)c(=O)c2noc(C)c12	-5%	.	1.1	0	.
CCOC(=O)[C@@H]1[C@H]2COc3cc(OC)ccc3[C@@H]2N2C(=O)N(c3ccc(C(F)(F)F)cc3)C(=O)[C@]12C	.	.	2.1	2	.
COc1ccccc1CNC(=O)COC(=O)c1ncc(Cl)c(Cl)c1Cl	.	.	3.0	0	.
CCOC(=O)c1c(NC(=O)CN2CCOCC2)sc2c1CC(C)(C)OC2	-2%	-36	-1.0	1	-9
NC(=O)[C@@H]1CCOc2c(F)cc([N+](=O)[O-])cc2C(=O)N[C@@H](CO)C(=O)NCC(=O)N1	-10%	-19	-0.3	-5	3
CCCCc1nc2ccccc2n1CC(=O)NN	-2%	-18	-2.2	5	-5
CCOC(=O)c1nnn(-c2nonc2N)c1-c1ccc(Br)cc1	7%	.	-4.9	4	1
CN1CCN(C(=O)O[C@H]2c3nccnc3C(=O)N2c2ccc(Cl)cn2)CC1	.	.	0.9	-3	.
CCn1cc(CN2N=C(C)CC2c2ccccc2)c(C)n1 (stereo unspecified)	-7%	.	-0.5	-1	3
Cc1cc(NC(=O)CSC2=NS(=O)(=O)c3ccccc3N2)no1	.	.	-2.8	-12	.
CNCCCOc1ccc(C(C)(C)c2ccccc2)cc1	.	3	0.0	.	-17
COc1cccc2cc(-c3nnc(SCC(=O)NCCc4ccccc4)n3C)oc12	-8%	-30	0.1	3	-1
Cn1c(CNC(=O)c2ccccc2F)nnc1SCc1ccc(Cl)cc1	-2%	.	-0.3	2	19
O=C(NCCOC(=O)c1ccccc1C(=O)OCCNC(=O)c1cccnc1)c1cccnc1	-12%	-18	-0.3	0	1
O=C1Nc2cc(C(=O)N3CCN(Cc4ccccc4)CC3)ccc2SC1N1CCOCC1 (stereo unspecified)	.	-30	1.6	-19	3
CC(c1nc2ccccc2c(=O)[nH]1)N(C)c1ccc2ccccc2c1 (stereo unspecified)	-2%	-22	2.6	-2	-16
COc1ccc2oc(=Nc3cccc(F)c3)c(C(N)=O)cc2c1	7%	.	-2.2	-2	-17
CCNCCC(=O)N1c2ccccc2Sc2ccc(C(F)(F)F)cc21	.	.	-0.8	-1	.
CC1(C)CC(=O)C2=C(C1)Nc1ccccc1[S@]2=O	-2%	.	.	3	.
COc1ccc(N2C(=O)CSC23CCC(C(C)(C)C)CC3)cc1 (stereo unspecified)	-16%	3	7.2	10	17
O=C(COc1ccc([N+](=O)[O-])cc1)Nc1ccc(NC(=O)c2ccccc2)cc1	.	.	1.8	-6	.
CCOC(=O)c1ccc(NC(=S)N(CCCN2CCCC2)Cc2ccco2)cc1	?	-6	-2.5	-9	-4
O=C(NCc1cccnc1)c1cc2nc(-c3cccs3)cc(C(F)(F)Cl)n2n1	10%	.	-5.1	0	0
CCc1cc(SC#N)ccc1N	1%	.	-4.9	-5	-7
CC(NC(=O)C(=O)NCCCn1ccnc1)c1ccccc1 (stereo unspecified)	-6%	.	-1.1	0	-13
COc1ccc(CN(C)S(=O)(=O)c2nnc(NC(=O)c3ccc(C)cc3)s2)cc1OC	.	.	-3.0	9	.
CCOc1cc(/C=N/NC(=O)c2cccnc2)ccc1OCc1ccc(C(=O)OC)o1	6%	.	1.9	-2	-1
N#CC1=C2SCC(O)(c3ccccc3)N2C(=O)CC1c1ccccc1 (stereo unspecified)	-11%	-37	5.3	3	-30
Nc1nnc(SCC(=O)OCc2ccc(F)cc2)s1	-7%	-29	1.5	-5	-6
CN(Cc1ccccc1)C(=O)c1cccc(N2C(=O)C3CC=CCC3C2=O)c1 (stereo unspecified)	.	.	-1.2	-4	.
O=C(O)C1CCN(S(=O)(=O)c2ccc(N3CCCC3C(=O)O)c([N+](=O)[O-])c2)CC1 (stereo unspecified)	.	.	-0.8	4	.
O=C(CSc1nn(-c2ccccc2)c(=S)s1)Nn1cnnc1	.	-33	.	1	3

Assay outcomes as filed in PubChem.
